Screening data from PubChem.
BJeLR lethal: kills HRASV12-expressing BJeLR cells; BJeLR (HRASV12) viability, CellTiter-Glo ATP luminescence, 48 h; reference of the scale not given here; inhibition, % (no concentration beside the values); 300,000 tested, 0.17% active; AID 1554;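 active = replicate mean above 50%; inconclusive = above 50% but judged a plate artefact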;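 also: 50 nL library stock added to about 25 µL; numbers are from one replicate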
Bead autofluor: compound fluorescence in toxin protease inhibitor counterscreen; compound autofluorescence counterscreen, microsphere flow cytometry; active compounds read high; fluorescence intensity (test concentration not listed); 360,000 tested, 3.1% active; AID 624483;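 active = at least 3 SD above the mean of all compounds, about 16000 in these data; inconclusive = too few beads counted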;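 also: 100 nL of 1 mM stock went into each well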
PrP 5UTR inh: suppresses PrP 5' UTR mRNA reporter expression | cell-based PrP 5' UTR mRNA reporter, plate reader | inhibition, % (test concentration not listed) | 340,000 tested, 0.35% active;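 active = every replicate at 50% or more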;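 also: 0 = median of the neutral control wells; tested in H4 reporter cells; numbers are from one replicate; inactives centre near -14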
Sa ugtP lethal: kills S. aureus RN4220 lacking UgtP; 330,000 tested, 0.54% active; AID 1259309; S. aureus RN4220 ugtP deletion, OD600 growth, 16 h; some inactives read as strong as hits; growth inhibition, % (test concentration not listed);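 active = z-score under -3 and OD600 up to 0.15 on both plates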;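 also: plate controls were untreated wells for no effect and antibiotic for full effect; wells of about 80 µL received 100 nL stock; the first replicate is given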
RN4220 kill: S. aureus RN4220 growth inhibition; OD600, 16 h; inhibition, % (no concentration beside the values); 330,000 tested, 0.33% active; AID 1259311;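 active = z-score of -3 or lower and OD600 up to 0.18 on both plates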;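 also: plate controls were untreated cells for no effect and reference antibiotic for full effect; stock transfer was 100 nL into about 80 µL; one replicate is shown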
Mtb hypoxia rep: inhibitors of hypoxia-regulated fluorescent reporter in Mycobacterium tuberculosis | M. tuberculosis hypoxia-regulated fluorescent reporter, fluorescence | fluorescence inhibition, % (test concentration not listed) | 300,000 tested, 0.1% active | AID 1159583;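 active = 35 to 45% if threefold the growth effect, above 45% if 1.5-fold the growth effect; inactive = the rest, general growth blockers included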;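 also: wells of about 50 µL received 100 nL stock; 0% = vehicle wells and 100% = reference inhibitor wells; whole bacteria with a GFP reporter of the hypoxia response; strong numbers were not always called active; many hits fall short of the cut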
Mtb hypoxia rep growth: second read-out of Mtb hypoxia rep, no call of its own (marks repeat the call); growth inhibition, %; measured here: M. tuberculosis growth (absorbance);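 0% = vehicle and 100% = reference antibiotic; read after six days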
* marks the source's active call; other numbers are inactive results; ? = inconclusive; . = no result given.

Structure	RN4220 kill	BJeLR lethal	PrP 5UTR inh	Sa ugtP lethal	Bead autofluor	Mtb hypoxia rep	Mtb hypoxia rep growth
CCn1c(Cc2ccccc2)nnc1SCC(=O)Nc1nc2ccccc2s1	0.1	4	-24	-4	2433	.	.
CC(Cc1ccccc1)NC(=O)CCCCC(=O)NC(C)Cc1ccccc1 (configuration not stated)	.	-4	-31	.	3710	.	.
O=[N+]([O-])c1cccnc1Oc1ccc(OCc2ccccc2)cc1	2.0	-3	-22	12	4227	1	0
COC(=O)c1ccc(C(=O)NC(=S)Nc2nc3c(s2)CCCC3)cc1	19	-2	-41	12	2114	10	10
COC(=O)C(C)Sc1ccc2nnc(-c3cccc(F)c3)n2n1 (configuration not stated)	4.9	-5	-8	5	4356	7	4
CC1(c2ccccc2)NC(=O)N(CC(=O)NCCC2=CCCCC2)C1=O (configuration not stated)	8.9	-2	-11	-4	5079	8	10
c1ccc(-c2cnn3nnnc3n2)cc1	4.4	-1	-24	3	3967	.	.
O=C(Nc1ccc(F)cc1)c1ccc(=O)[nH]n1	-1.0	-4	.	11	3638	2	0
CC(CC(=O)Nc1ccc2ccccc2c1)=NNC(=O)c1cnccn1	3.4	.	.	-7	.	-12	-2
O=C(O)COCC(=O)Nc1ccc2c(c1)oc1ccccc12	0.6	11	-22	3	3847	2	1
O=C(CCN1CCN(C/C=C/c2ccccc2)CC1)Nc1ccccc1Cl	4.4	-18	-14	5	3207	14	0
CCS(=O)(=O)N1Cc2ccccc2CC1C(=O)N(C)CC(=O)Nc1cccc(F)c1 (configuration not stated)	0.8	-8	-21	6	?	-3	-4
COCCn1cnc2c1c(=O)n(CC(=O)NC(=O)NC(C)(C)C)c(=O)n2Cc1ccccc1	-4.5	-9	-6	3	4140	-8	-5
CC(=O)Nc1ccc(Nc2cc(C)c3ccccc3n2)cc1	0.6	9	-3	-5	3791	-9	6
COc1ccc(CCNCC(=O)N2C(C)CCCC2C)cc1OC (configuration not stated)	7.1	2	-14	13	2123	16	0
CCCC(=O)NCCc1cc2c(C)ccc(C)c2[nH]c1=O	1.9	3	-6	9	5574	4	1
O=C(COC(=O)c1ccc(S(=O)(=O)NCc2ccco2)cc1)NCc1ccccc1	-0.9	.	-30	4	4203	7	9
NC(=O)C1CCN(c2nc(-c3ccc(Br)cc3)cs2)CC1	-2.9	10	-24	9	2466	-5	-3
NC(=O)c1sc2nnc(-c3ccccc3)c(-c3ccccc3)c2c1N	1.9	3	-8	84*	17320*	5	4
Cc1ccc(C)c(NC(=O)CN(C)C(=O)CN2C(=O)C3CCCCC3C2=O)c1 (configuration not stated)	1.1	-1	-10	2	6225	-4	13
COc1ccc(NC(=O)Cn2c3ccccc3c3nc4n(c(=O)c32)CCS4)cc1OC	-2.7	-7	-24	2	.	10	-5
COc1ccc(CCC(=O)NC(C)C)cc1	2.8	-13	-24	-5	4378	-7	8
CCn1cc(CNC(=O)C2C3CCC(C3)C2C(=O)O)cn1 (configuration not stated)	-13	3	-21	-4	2902	8	4
Cc1nc2ccccn2c1C(=O)N/N=C/c1ccccc1	.	-2	-3	.	3056	.	.
O=C(NCCc1ccccc1)c1ccccc1NC(=O)C1CCCCC1C(=O)O (configuration not stated)	3.8	-2	.	9	.	-4	2
CC(=O)Nc1cccc(C(=O)NC(C)c2ccc(S(N)(=O)=O)cc2)c1 (configuration not stated)	-10	0	-7	-7	5175	5	3
O=C(O)c1cc(N2C(=O)C3C4C=CC(C4)C3C2=O)ccc1N1CCOCC1 (configuration not stated)	2.5	-6	0	1	4203	5	-3
Cc1ccc(C)c(-n2c(N)c(C(N)=O)sc2=S)c1	5.6	-4	-13	-2	3822	-83	-1
CC(C)(C)n1nnnc1C(c1cccs1)N(Cc1cccnc1)Cc1ccccc1Cl (configuration not stated)	-12	0	-4	2	4030	3	5
CCC(=O)c1c[nH]c(C(=O)NCCCN2CCOCC2)c1	-2.0	-1	1	8	2369	.	.
CCOc1ccccc1N1CC(C(=O)Nc2ccc(S(=O)(=O)N3CCCCC3)cc2)CC1=O (configuration not stated)	1.8	6	1	3	5386	12	4
COc1cccc(N2[C@@H](CC(=O)O)c3ccccc3S2(=O)=O)c1	.	5	-5	.	3873	.	.
CC1=C(CC(=O)O)c2cc(F)ccc2C1=Cc1ccc(S(C)(=O)=O)cc1	0.8	.	-18	-6	5927	-3	-1
Cc1cccn2c(=O)c3cc(C(=O)N4CCCC(C)C4)sc3nc12 (configuration not stated)	5.5	-5	-25	4	5684	3	11
Cc1ccc(NC(=O)CN2C(=O)N/C(=C/c3ccc(C)s3)C2=O)cc1	0.4	20	-21	-4	9011	-6	2
CCOC(=O)N1CCN(S(=O)(=O)c2ccc(C(=O)N(CCCN(C)C)c3nc4ccc(Cl)cc4s3)cc2)CC1	-2.5	22	-9	0	6279	20	0
Cc1cc(C(=O)NC2CCC(C)CC2)c(C)o1 (configuration not stated)	2.3	-17	-75	5	4905	13	7
Cc1ccc2cc(CN(CCN3CCOCC3)Cc3nnnn3Cc3ccco3)c(=O)[nH]c2c1C	-12	15	-7	-6	3682	0	5
CCCC(=O)NC1=C(N2CC2)C(=O)C(NC(=O)CCC)=C(N2CC2)C1=O	5.0	.	-8	-3	3885	3	12
COc1ccccc1C(=O)NNC(=O)CCCN1C(=O)/C(=C/c2cccs2)SC1=S	8.2	4	-7	6	2761	15	7
C1CC1Cc1noc(CN2CCN(C3C4CC5CC(C4)CC3C5)CC2)n1 (configuration not stated)	1.9	-5	-2	19	2442	0	11
O=C1CSC(c2ccccc2[N+](=O)[O-])N1c1cccc(F)c1 (configuration not stated)	-3.1	-8	2	4	4367	3	1
Cc1nnc(SCc2nnc(-c3ccccc3Br)o2)n1-c1ccccc1	5.7	7	0	3	7887	9	1
CC1CCC(NC(=O)C2CCC(CNS(=O)(=O)c3cccc4nsnc34)CC2)CC1 (configuration not stated)	3.3	9	-13	10	4365	-5	0
Cn1nc(C(F)(F)F)c(C(=O)Nc2ccc(F)cc2F)c1Sc1ccc(C(F)(F)F)cc1	3.4	7	-2	-11	22356*	-3	2
CCOc1ccccc1CNc1nc2ccccc2n1C	3.8	4	-4	16	4005	13	6
Cc1c(O)ccc(C(=O)CN2CCN(c3ccccc3)CC2)c1O	-0.8	-1	-8	5	5501	-9	-2
CN(CC(=O)Nc1ccc(N2CCOCC2)cc1)Cc1c(O)ccc2ccccc12	3.9	-2	-2	11	4174	6	0
COc1ccc(C(=O)N=c2sc3ccccc3n2C)cc1	-9.0	-36	-70	3	3111	9	6
CN1CCN(CCNC(=O)Nc2ccc([N+](=O)[O-])cc2)CC1	2.3	3	-10	-3	4718	11	11
COc1ccc(-c2noc(CCC(=O)N(C)c3cccc(C)c3)n2)cc1	-3.7	2	-8	-9	2348	.	.
Cc1cccc(OCCNC(=O)c2ncn[nH]2)c1	4.7	3	-17	-3	4338	2	8
Cc1ccc(NC(=S)NCC2CCN(C(C)c3ccccc3)C2)cc1C (configuration not stated)	2.5	0	-15	10	4959	10	7
COc1ccc(-n2c(C)nnc2SCC(=O)N2CCOCC2)cc1	3.3	-2	-21	5	3824	7	-6
Cc1ccccc1SCCNC(=O)CCc1ccccc1	4.6	-19	.	12	.	13	3
CCC(NC(=O)C1CCC1)c1ccc(C)cc1 (configuration not stated)	-1.3	5	-29	0	3091	-76	-20
O=C(NNC1=C(C(=O)C(F)(F)F)CCC1)c1ccncc1	7.8	2	-24	-4	4588	6	6
NC(=O)C1C2CCC(C2)C1C(N)=O (configuration not stated)	3.1	.	-8	-1	3898	-5	3
Cn1cccc1CC(=O)NNC(=S)NC(=O)c1ccc(F)cc1	12	5	-16	2	3406	3	-5
Cc1ccccc1NC(=O)C1CCN(C(=O)NC2CCCCC2)CC1	-1.6	3	-10	9	5326	-8	-3

13 entries from above, with two lines to a compound.
Values run as follows: RN4220 kill | BJeLR lethal | PrP 5UTR inh | Sa ugtP lethal | Bead autofluor | Mtb hypoxia rep | Mtb hypoxia rep growth
- CN(CC(=O)Nc1ccc(N2CCOCC2)cc1)Cc1c(O)ccc2ccccc12
  3.9 | -2 | -2 | 11 | 4174 | 6 | 0
- COc1ccc(C(=O)N=c2sc3ccccc3n2C)cc1
  -9.0 | -36 | -70 | 3 | 3111 | 9 | 6
- CN1CCN(CCNC(=O)Nc2ccc([N+](=O)[O-])cc2)CC1
  2.3 | 3 | -10 | -3 | 4718 | 11 | 11
- COc1ccc(-c2noc(CCC(=O)N(C)c3cccc(C)c3)n2)cc1
  -3.7 | 2 | -8 | -9 | 2348 | . | .
- Cc1cccc(OCCNC(=O)c2ncn[nH]2)c1
  4.7 | 3 | -17 | -3 | 4338 | 2 | 8
- Cc1ccc(NC(=S)NCC2CCN(C(C)c3ccccc3)C2)cc1C (configuration not stated)
  2.5 | 0 | -15 | 10 | 4959 | 10 | 7
- COc1ccc(-n2c(C)nnc2SCC(=O)N2CCOCC2)cc1
  3.3 | -2 | -21 | 5 | 3824 | 7 | -6
- Cc1ccccc1SCCNC(=O)CCc1ccccc1
  4.6 | -19 | . | 12 | . | 13 | 3
- CCC(NC(=O)C1CCC1)c1ccc(C)cc1 (configuration not stated)
  -1.3 | 5 | -29 | 0 | 3091 | -76 | -20
- O=C(NNC1=C(C(=O)C(F)(F)F)CCC1)c1ccncc1
  7.8 | 2 | -24 | -4 | 4588 | 6 | 6
- NC(=O)C1C2CCC(C2)C1C(N)=O (configuration not stated)
  3.1 | . | -8 | -1 | 3898 | -5 | 3
- Cn1cccc1CC(=O)NNC(=S)NC(=O)c1ccc(F)cc1
  12 | 5 | -16 | 2 | 3406 | 3 | -5
- Cc1ccccc1NC(=O)C1CCN(C(=O)NC2CCCCC2)CC1
  -1.6 | 3 | -10 | 9 | 5326 | -8 | -3

(more compounds)
Structure	RN4220 kill	BJeLR lethal	PrP 5UTR inh	Sa ugtP lethal	Bead autofluor	Mtb hypoxia rep	Mtb hypoxia rep growth
CCC(=O)N1CCN(c2ccnc3cc(Cl)ccc23)CC1	1.5	-5	-27	-2	6112	-4	-3
O=C(CSc1nnc(Cc2ccccc2)o1)NCCc1ccccc1	-1.9	-1	3	9	12863	15	-4
CC1CN(C(C)CO)C(=O)c2cc(NC(=O)C3CCCCC3)ccc2OC1CN(C)S(=O)(=O)c1ccc(F)cc1 (configuration not stated)	-0.5	.	.	4	.	1	5
COc1cc(C=NNC(=O)c2ccc(-n3cccc3)cc2)ccc1O	6.2	.	.	11	.	20	14
Cc1nc2cc(C(F)(F)F)ccc2n1CCNc1nc(-c2cc(Cl)c(N)c(Cl)c2)cs1	-7.8	2	-6	-5	3519	11	1
Cc1ccc(S(=O)(=O)NCCC(=O)Nc2ccc(S(=O)(=O)NC(C)C)cc2)cc1	2.9	-5	-7	4	3556	-9	0
Cc1ccc2[nH]c3c(c2c1)CN(C(=O)CN1CCN(c2ccccn2)CC1)CC3	3.9	8	-17	-6	11408	8	15
CCOc1ccc(NC(=O)C2CCCN(S(=O)(=O)c3ccc4c(c3)CC(C)N4C(C)=O)C2)cc1 (configuration not stated)	5.8	-6	2	7	5763	1	5
O=C(Nc1ccccc1)NC1CCCc2ccccc21 (configuration not stated)	0.3	11	-17	4	2281	2	0
COc1ccc(COC(=O)c2sc3nc4n(c(=O)c3c2C)CCC4)cc1	.	-11	-5	.	6294	.	.
COc1cc(NC(=O)c2ccccc2F)c(OC)cc1NC(=O)CN1CCCCC1	0.2	4	0	-22	6305	-5	14
CCCc1nc2ccccc2n1CCOC	0.0	1	-23	-1	8788	8	9
Cc1ccccc1CSCC(=O)Nc1c(C)n(C)n(-c2ccccc2)c1=O	2.0	-2	1	7	2617	5	3
O=c1cc(-c2ccccc2)oc2ccccc12	5.9	.	-42	-5	5551	.	.
N/C(=N\OC(=O)CCc1ccccc1)c1ccc(Cl)cc1	3.3	-3	-8	17	5826	5	11
